S aureus helic – blocks Staphylococcus aureus DNA helicase; purified S. aureus helicase, fluorescence unwinding assay; about half of the hits fall short of the stated cut; inhibition, %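 (tested at about 80 µM)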; 0.05% of 120,000 active; AID 485395;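 active = both duplicates at 50% or more, or one of them with a favoured structure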;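 also: 0% = mean of negative control wells and 100% = mean of positive control wells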
MgrA DNA FP – modulators of Staphylococcus aureus MgrA DNA binding; fluorescence polarization; inhibition, %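 (about 10 µg/mL by stock and volumes)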; 0.13% of 84,000 active;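 active = above 50% in either of two replicates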;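 also: 0% = protein plus DNA without compound and 100% = DNA alone without protein; higher means less MgrA bound to DNA so lower polarization; one replicate is shown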
Starred values were filed as active, the others as inactive; / = no result given.

Results follow in this order: S aureus helic, MgrA DNA FP
CC1=CCC2C(=O)N(c3ccc(F)cc3F)C(=O)C2C1 (stereo not given)
 : /, -2.4
CCOc1ccc2[nH]c(=O)c(Cc3ccccc3)c(O)c2c1
 : 2.0, 0.4
CN(C(=O)COC(=O)c1ccc(Cl)c(N)c1)C1CCCCC1
 : -14.0, 0.8
CC(Nc1ccccc1)c1ccncc1 (stereo not given)
 : -3.0, 2.6
O=C(COC(=O)c1cccc(C(F)(F)F)c1)NCc1ccccc1
 : -17.0, -0.6
COc1ccc(C)cc1NC(=O)CN1CCSc2ccccc21
 : -11.0, /
Cc1ccc(-c2nnc(-c3cc(C(=O)NN)c(C)nc3C)o2)cc1
 : 6.0, -0.2
Cc1csc(C(=O)NN)c1Cl
 : /, -3.3
CCCn1c(-c2ccccc2)cn2c3c(=O)n(C)c(=O)n(C)c3nc12
 : -15.0, /
Nc1nnc(C2CCCC2)s1
 : 1.0, 0.8
CC12CCC(=O)N1C(C(=O)N1CCN(S(=O)(=O)c3ccc(F)cc3)CC1)CS2 (stereo not given)
 : 8.0, /
COc1ccccc1C(C)NCC(=O)Nc1ccccc1C#N (stereo not given)
 : -3.0, /
Cc1cc(C(=O)N/N=C/c2[nH]ncc2Cl)no1
 : 24.0, /
CCOC(=O)c1cnn(-c2ccccc2)c1N(C(=O)c1ccccc1F)C(=O)c1ccccc1F
 : 9.0, 2.9
N#Cc1nc(-c2ccccc2F)oc1N1CCN(c2ccccc2)CC1
 : 2.0, -1.3
COC(=O)C1=CNC=C(C(=O)OC)C1c1ccc(C)s1
 : 8.0, /
COc1cccc(-n2c(C)c3c(C)nnc(C)c3c2C)c1
 : 1.0, -1.1
Clc1ncccc1N=Cc1cccc(Br)c1
 : 22.0, -0.7
CCOC(=O)c1cn(CC)c2ccc(S(=O)(=O)N3CCc4ccccc4C3)cc2c1=O
 : 14.0, 0.2
COc1ccccc1NC(=O)Cn1c(=O)n(-c2ccccc2)c(=O)c2c3c(sc21)CN(C(C)=O)CC3
 : 4.0, /
Cc1cccc(OCCNCCO)c1C
 : 2.0, 4.8
COC(=O)c1sccc1NC(=S)Nc1ccsc1C(=O)OC
 : /, -0.6
C=CCSc1nc2c(c(-c3ccc(C)o3)c1C#N)CCCC2
 : 10.0, 4.2
COC(=O)c1ccc(COc2ccc3ccccc3c2)o1
 : 4.0, 1.2
CC(C)n1c(CCCO)nc2ccccc21
 : -9.0, /
O=C(Nc1ccc(F)c(F)c1)c1cnn(-c2ccccc2)n1
 : 19.0, /
C[n+]1cc(C(=O)NCCC[N+]2(C)CCCC2)ccc1/C=N/O
 : 4.0, 2.7
COc1ccc(C2=Nc3ccccc3SC(C(=O)O)C2)cc1 (stereo not given)
 : 11.0, /
O=C(NCc1ccc(Cl)cc1)c1ccc(CN2CCOCC2)cc1
 : 17.0, -0.7
O=C1C2ON(c3ccc(Cl)cc3)C(c3ccc(F)cc3)C2C(=O)N1Cc1ccccc1 (stereo not given)
 : 1.0, 2.2
CSc1nc(C)cc(-c2ccccc2)n1
 : -6.0, /
Cc1cnc(C)c(N2CCC(C(=O)NCC3CC3)CC2)n1
 : -2.0, -1.4
Cn1cc(SC(=N)N)c2ccccc21
 : -12.0, /
Cn1cc(SCC(=O)N2CCc3ccccc32)c2ccccc21
 : -9.0, /
Cc1ccc(CC(C#N)Sc2nc3ccccc3n2CCC#N)cc1 (stereo not given)
 : -14.0, /
Cc1cc(C)cc(NC(=O)CN2C(=O)CCc3ccccc32)c1
 : 0.0, 0.2
Oc1c(Br)cc(Br)cc1/C=N/NC(=S)N[C@H]1CC2C=CC1C2 (stereo not given in full)
 : /, 2.3
Fc1ccc(-c2cc(C(F)(F)F)nc(-n3cccn3)n2)cc1
 : 5.0, 0.0
COc1cc(CO)ccc1OCC(=O)NC(C)(C)C
 : 7.0, 0.6
O=C(O)CCCNc1nc(F)cc(F)n1
 : 8.0, /
CC1(C)CC(CC(=O)N2CCCCC2)(c2ccccc2)CCO1 (stereo not given)
 : 0.0, /
COc1ccc2cc(C3SC(C)C(=O)N3C3CCCO3)c(Cl)nc2c1 (stereo not given)
 : -32.0, 23.9
Cn1ccnc1SCC(=O)N1c2ccccc2Sc2ccccc21
 : /, -2.7
COc1cc(OC)cc(C(=O)N(C)CCc2ccc(OC)c(OC)c2)c1
 : -7.0, /
CC(=O)N(c1ccccc1)c1nc(CSc2nnc(Cc3cccs3)n2C)cs1
 : 20.0, /
CCC(Sc1nc2ncccc2c(=O)n1Cc1ccccc1)C(=O)NCc1ccc(C)cc1 (stereo not given)
 : 11.0, -2.8
Cn1cc(Br)c(NC(=O)/C=C\C(=O)O)n1
 : 19.0, /
COc1ccc(-c2nc(=S)n(CN3CCOCC3)[nH]2)cc1
 : -6.0, -0.7
O=C(N/N=C1\CCS(=O)(=O)c2ccc(F)cc21)c1ccc(O)cc1
 : -1.0, /
COc1ccc(C(=O)/C=C/Nc2ccccn2)c(OC)c1
 : -7.0, /
Cc1ccc(N2C(=O)C3Sc4[nH]c(=O)sc4C(c4ccccc4)C3C2=O)cc1 (stereo not given)
 : 9.0, 13.4
CCOc1ccc(N2CSC(=S)N(c3ccc(OCC)cc3)C2)cc1
 : /, 1.1
CC(CC(=O)Nc1cccc(C(F)(F)F)c1)N1CCCC1 (stereo not given)
 : /, 2.1
Cc1ccc([N+](=O)[O-])cc1N1C(=O)C2C3C=CC(O3)C2C1=O (stereo not given)
 : /, -3.8
COC(=O)c1cc(NC(=O)c2cccc3c2C(=O)N(Cc2cccnc2)C3)cc(C(=O)OC)c1
 : 5.0, 0.0
O=c1[nH]c2ccc(NCc3ccccn3)cc2[nH]1
 : -20.0, /
C=C(C)Cn1cnc(-c2ccccc2)c1-c1ccccc1
 : -3.0, /
Clc1ccc(CN2CCN(/N=C/C3=C(N4CCOCC4)C(=C\c4ccccc4)/CC3)CC2)cc1
 : -8.0, /
CC1CC1C(=O)OCc1cc(=O)n2cc(Br)ccc2n1 (stereo not given)
 : -3.0, /
NC(N)=NC(N)=Nc1ccc(Cl)c(Cl)c1
 : /, -2.1

Remaining list, next part:
Results follow in this order: S aureus helic, MgrA DNA FP
CC(CCN1CCCN(C)CC1)c1ccccc1 (stereo not given)
 : 6.0, 0.0
COc1ccccc1CN(C)C(C)C(=O)NCC1CCCCC1 (stereo not given)
 : 11.0, /
O=C(Nc1ccc2oc(-c3ccccc3F)nc2c1)c1ccc2c(c1)OCCO2
 : /, -1.7
CC(C)CCn1c(=O)c2ccccc2c2ccccc2c1=O
 : 3.0, /
Cc1cc(-c2ccccc2)nc2cc(C(=O)Nc3cc(Oc4ccc(O)cc4)cc([N+](=O)[O-])c3)nn12
 : /, 3.0
CN(Cc1c(F)cccc1Cl)S(=O)(=O)c1cn(C)c(=O)n(C)c1=O
 : 8.0, /
COc1ccccc1-c1nc2sc3c(c2c(=O)o1)CCCC3
 : /, 3.0
COc1cccc(NC(=S)NCc2cccn2C)c1
 : -3.0, /
NC(=S)N/N=C1\CCOc2ccc(Cl)cc21
 : -17.0, /
CSc1ccc(CNC(=O)c2cccs2)s1
 : /, 0.1
Cc1ccc(C)c(NCCOc2ccccc2)c1
 : 5.0, 0.9
O=C(O)CSc1nnc(Cn2c(=O)sc3ccccc32)n1-c1cccc(C(F)(F)F)c1
 : 17.0, 1.4
Cc1cc(C)n(CC(=O)NC2CCCCC2)n1
 : 2.0, /
O=C(c1cc2cc(Br)ccc2oc1=O)N1CCCc2ccccc21
 : 10.0, 0.9
CCOC(=O)c1cccc(NC(=O)c2cccc3c2C(=O)N(C2CCN(C(=O)OCC)CC2)C3)c1
 : 34.0, /
O=C(CC1CCCC1)OCC(=O)c1ccc(Cl)cc1
 : -23.0, -0.5
CCOC(=O)c1sc(SC#N)c(C(=O)OCC)c1C
 : -19.0, /
CC(=O)c1ccc(-c2ccc(Cl)cc2Cl)o1
 : /, 0.0
CCCCNC(=O)C1CCN(S(=O)(=O)c2cccc3nsnc23)CC1
 : -33.0, /
O=C(COc1ccc(Cl)cc1)NCC(c1ccco1)N1CCc2ccccc2C1 (stereo not given)
 : -7.0, /
CCN1CCc2c(sc3[nH]c(=S)n(Cc4ccccc4)c(=O)c23)C1
 : 1.0, /
CCOc1ccccc1N(C)S(=O)(=O)c1ccc2[nH]c(=O)ccc2c1
 : 6.0, 0.9
CN(CCOc1ccc(Br)cc1)Cc1nnc(-c2ccc(F)cc2)o1
 : 6.0, /
O=C(CN1CCC(c2nc3ccccc3o2)CC1)Nc1cc(F)ccc1F
 : 25.0, /
COc1ccc(-c2nc(C)c(CCNC(=O)C(C)(C)C)s2)cc1
 : 3.0, 0.3
CCC(=O)Nc1cc(C(F)(F)F)cnc1OC
 : /, -1.1
O=C(NC1CCCCCCC1)c1c[nH]c2ccc(S(=O)(=O)N3CCOCC3)cc2c1=O
 : 3.0, /
Nc1ccccc1N1CCCCC1
 : 3.0, -1.1
COc1ccc(/C=C(\NC(=O)c2ccccc2)C(N)=O)cc1
 : 2.0, 0.7
Cn1cccc1C(=O)OCC(=O)c1ccc2c(c1)OCCO2
 : 7.0, /
COC(=O)c1c(NC(=S)NCCn2cc(Br)cn2)sc2c1CCC(C)C2 (stereo not given)
 : 13.0, 3.3
CCOC(=O)c1cc(S(=O)(=O)NC(CC)c2cccs2)cn1C (stereo not given)
 : -4.0, /
N#Cc1c(N2CCN(C(=S)NCc3ccccc3)CC2)nc(-c2ccco2)c2c1CCCC2
 : -30.0, /
COc1ccc(S(=O)(=O)N(CC(N)=O)Cc2ccccc2)cc1OC
 : 0.0, -1.3
NNC(=O)C12CCCC(CCC1)C2
 : /, -1.9
CCNc1nc(NC(C)C)nc(NS(=O)(=O)c2ccc(N)cc2)n1
 : /, 0.4
Nn1c(SCC(=O)Nc2ccccc2)nnc1C1CCCCC1
 : 15.0, /
CC(=O)N1c2ccc(S(=O)(=O)N(C)C3CCCCC3)cc2CC1C (stereo not given)
 : 27.0, /
COc1ccc(-c2cn3c(C)c(C(=O)Nc4ccccc4)sc3n2)cc1
 : 15.0, 4.9
CC(=O)N1CCN(Cc2nc3ccc(Cl)cc3n2CCO)CC1
 : 5.0, /
Cc1ccc(S(=O)(=O)N2CCCN(C(=O)CN3CCOCC3)C2c2ccccc2)cc1 (stereo not given)
 : 3.0, /
c1nc2n(n1)C1=C(CCCC1)C1(CCCCC1)N2
 : 12.0, /
COc1ccc2c(c1)C(=O)N(c1ccccc1OC)C(=O)C2(Cc1c(C)noc1C)Cc1c(C)noc1C
 : -4.0, /
CN(C)c1ccc(N/C(N)=N/c2nc(C(F)(F)F)cc(C(F)(F)F)n2)cc1
 : 2.0, 2.2
COc1cccc(Nc2nc(N)nc(CN3CCCCC3)n2)c1
 : -3.0, 0.6
Nc1c(S(=O)(=O)c2cccs2)c2nc3ccccc3nc2n1Cc1cccs1
 : 11.0, /
Cc1noc(C)c1COC(=O)CSc1ncnc2sccc12
 : -7.0, /
O=C(COC(=O)c1ccc(-n2cnnn2)cc1)Nc1cc(-c2ccccc2)nn1-c1ccccc1
 : -8.0, /
CCn1c(O)c(C2=c3ccccc3=NC2=O)sc1=S
 : -33.0, /
O=C1Cc2ccccc2C(c2ccc(Cl)cc2Cl)N1 (stereo not given)
 : /, -0.4
CC1=C(C(=O)OCc2ccccc2)C(c2cc3c(cc2Br)OCO3)NC(=O)N1 (stereo not given)
 : /, 3.0
O=C(Cn1ncn2c(cc3ccccc32)c1=O)N1CCN(C(=O)c2ccco2)CC1
 : 31.0, /
Cc1nn(-c2ccccc2)c(C)c1Cc1ccc(O)cc1
 : /, 2.0
NC(=O)C(c1ccccc1)c1ccccc1
 : 8.0, 4.2
O=C(Nc1ccccc1C(=O)Nc1ccc2c(c1)OCCO2)c1ccco1
 : -2.0, /
CNn1cnc2ccccc2c1=O
 : /, -0.2
O=C(CNC(=O)c1ccccc1)Nc1ccccc1
 : 5.0, -1.0
O=C(CNc1cc(C(F)(F)F)cc(C(F)(F)F)c1)c1cc2cc(Cl)ccc2o1
 : /, 1.7
Cc1cccc(NC(=O)CCS(=O)(=O)c2ccccc2)c1
 : -19.0, /
CC(CC(=O)Nc1ccc(F)cc1)N1CCCC1 (stereo not given)
 : /, 0.2

More records follow:
Results follow in this order: S aureus helic, MgrA DNA FP
Cc1c(C)n(CC(O)CNC(CO)(CO)CO)c2ccccc12 (stereo not given)
 : 4.0, /
O=C1CSC(=O)N1CCc1ccccc1
 : 5.0, -0.6
O=C(O)c1ccc(Nc2nc(-c3ccc(Cl)c(Cl)c3)cs2)cc1
 : -3.0, -0.8
CCc1cc2c(=O)c(-c3nc4ccccc4s3)coc2cc1OC(C)=O
 : 0.0, 0.3
Cc1ccc(OCC(=O)NN)c2c1CCC2
 : /, -0.4
CCC(N)C12CC3CC(CC(C3)C1)C2 (stereo not given)
 : -12.0, 0.2
CCOC(=S)SCc1cc(Br)cc(Br)c1
 : /, 1.4
CN1/C(=C2\C=NN(C)P2(=O)Nc2ccccc2)C(C)(C)c2ccccc21 (stereo not given)
 : 9.0, /
CC(C)CSCC1OC(n2cnc3c(N)ncnc32)C(O)C1O (stereo not given)
 : -4.0, -3.5
COCCN(Cc1nc2ccccc2c(=O)[nH]1)C(=O)c1ccc(C)cc1C
 : -14.0, /
COc1ccc(CC(=O)n2[nH]c(=O)cc(C)c2=O)cc1OC
 : 10.0, /
CCc1nnc(NC(=O)C(C)N2C(=O)C3C4C=CC(C4)C3C2=O)s1 (stereo not given)
 : 9.0, 3.4
Brc1ccc2noc(-c3ccccc3)c2c1
 : -3.0, 1.0
CN(C)CC#Cc1ccc(-c2ccn(S(=O)(=O)c3ccc(Cl)cc3)n2)s1
 : /, -1.0

Record cards, as listed above.
CN1/C(=C2\C=NN(C)P2(=O)Nc2ccccc2)C(C)(C)c2ccccc21 (stereo not given) reads S aureus helic: 9.0; MgrA DNA FP: /
O=C1CSC(=O)N1CCc1ccccc1 reads S aureus helic: 5.0; MgrA DNA FP: -0.6

These rows are one share of the data; count on the stated rates, not on these rows.
